# Menin MLL FP FL – inhibitors of human menin-MLL interaction, wild-type MLL peptide | 290,000 tested, under 10 active | FP activity change, % at 61.4 µM | Fluorescence polarization, fluorescein-MLL peptide displacement from menin; inconclusive = falling polarisation curve, or a change in total fluorescence; inactive = total fluorescence flat and polarisation flat or rising; no compound was filed as active; the % refers to the polarisation; negative = inhibition;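 further: % of control where 0% means no effect; inhibitors lower the polarisation; unlabelled MLL peptide was the positive control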
# ClpP mod – qHTS Assay for Activators of ClpP; AID 651965, 2013; purified B. subtilis ClpP, FRET peptide cleavage, 20 min; Potency, µM (highest dose often 57.5 µM), without a hit: top-dose activity change, negative = active; 340,000 tested, 1.9% active; active = well fitted falling curve with a large enough effect; inconclusive = small, poorly fitted or top-dose-only effect; inactive = no such curve, though single readings can be large or run the other way; further: potency means the concentration at half of the fitted maximal effect; the source files actives as falling curves though it sought activators and does not explain the sign; nearly all actives have a fitted effect of over 65% in size; many hits overshoot -100%
# Target sequence (P80244 whole entry, looked up): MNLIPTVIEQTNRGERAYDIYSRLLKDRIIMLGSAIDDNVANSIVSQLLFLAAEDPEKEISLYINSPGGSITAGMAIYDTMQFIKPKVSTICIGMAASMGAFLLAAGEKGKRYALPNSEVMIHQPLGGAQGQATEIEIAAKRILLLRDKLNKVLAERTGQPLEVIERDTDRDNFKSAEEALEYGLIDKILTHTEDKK
#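 FRET quenching reversal measured ClpP activation: 10 microg/mL B. subtilis ClpP at pH 8 with the FRET-FV decapeptide, read at 430 nm after 320 nm excitation. The 20-min minus 0-min signal was scaled between DMSO/no-enzyme wells and ADEP (5.8 microM final).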
# Sfp inh – inhibitors of Bacillus subtilis Sfp phosphopantetheinyl transferase; Q9F4F7; Biochemical Sfp PPTase activity, qHTS; Potency, µM, without a hit: max response, negative = inhibition, usual class: inhibitors; 310,000 tested, 3.5% active; active means well fitted inhibition curve with a large enough effect; inconclusive means small, poorly fitted or top-dose-only effect, or another doubt; inactive means no such curve, though single readings can be large or run the other way;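 further: the enzyme is Sfp with the accession as filed and its product quenches rhodamine fluorescence; potency means the concentration at half of the fitted maximal effect; 0% = enzyme reaction without inhibitor and -100% = no enzyme wells; top concentration of the series not given in the record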
#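 With Hepes-Na pH 7.6 buffer containing 10 mM MgCl2, Sfp (15 nM) modified BHQ-2-YbbR (12.5 uM) using rhodamine-CoA (5 uM). Two reads 30 minutes apart at 525/598 nm yielded each well's rate.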
# gsp ag – gsp mutant agonism. gsp mutant cells, cAMP HTRF, 30 min; control for the full effect not named in the record. Potency, µM (titrated, usually from 76.9 µM), for the others: at the top dose activation (cAMP increase), usual class: activators. 340,000 tested, 0.13% active. AID 624287; active = well fitted activation curve with a large enough effect; inconclusive = small, poorly fitted or top-dose-only effect, or another doubt; inactive = no such curve, though single readings can be large or run the other way; cell line not stated here;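 further: phosphodiesterase inhibitor Ro 20-1724 added with compounds to block cAMP breakdown; potency means the concentration at half of the fitted maximal effect; nearly all actives have a fitted effect of over 60% in size; about a fifth of the inactives were tested at one dose only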
#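 Cells stably selected in G418 were plated at 2000/well, grown 16-24 hr, then given compounds in DMSO with the PDE inhibitor […] (300 uM solution added) for 30 min at 37C; cAMP was read by HTRF.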
# TRPV1 PAM – enhances activation of the human vanilloid receptor TRPV1 | Q8NER1 | TRPV1-expressing cells, Fluo-8 calcium influx, capsaicin EC20 potentiation; host cell line not named in the record; control for the full effect not named in the record | potentiation, % at 8.33 µM | 320,000 tested, 0.02% active; active means potentiation above 80%; inconclusive means 30% to 80%; inactive means below 30%; further: 0% is about no effect
#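 Fluo-8 calcium influx in TRPV1-expressing cells, kinetic read (ex 480/em 520 nm). Compound added and read 3 min for agonist activity, followed by capsaicin at EC20 final and 2 min further read for enhancement.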
# D2 PAM – positive allosteric modulators of human D2 dopamine receptor | 360,000 tested, 0.23% active | potentiation, % (test concentration not listed) | AID 624464 | DiscoveRx D2 beta-arrestin cells, luminescence, 90 min; 100% = 57 uM dopamine signal; active = potentiation of 50% or more; inconclusive = 30% to 50%; inactive = 30% or less;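 further: compound concentration not given in the record; tested on top of an EC20 dose of dopamine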
# Target sequence (P14416 whole entry, looked up): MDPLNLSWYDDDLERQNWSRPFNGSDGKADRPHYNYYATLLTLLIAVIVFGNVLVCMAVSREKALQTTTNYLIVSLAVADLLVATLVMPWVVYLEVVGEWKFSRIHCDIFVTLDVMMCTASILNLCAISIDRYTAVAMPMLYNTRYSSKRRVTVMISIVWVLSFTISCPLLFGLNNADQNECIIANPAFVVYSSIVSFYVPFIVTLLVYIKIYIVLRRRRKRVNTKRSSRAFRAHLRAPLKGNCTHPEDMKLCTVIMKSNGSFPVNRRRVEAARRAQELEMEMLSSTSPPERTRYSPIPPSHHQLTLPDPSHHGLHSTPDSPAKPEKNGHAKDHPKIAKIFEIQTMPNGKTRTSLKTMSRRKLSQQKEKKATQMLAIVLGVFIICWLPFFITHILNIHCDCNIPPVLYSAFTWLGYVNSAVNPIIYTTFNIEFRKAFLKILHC
#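 PathHunter D2 cells, attached overnight at 37 deg C, received compound in DMSO plus dopamine at EC20 (50 nM final) for 90 min at 37 deg C. Beta-arrestin recruitment was read as luminescence after 1 h with detection reagent at ambient temperature.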
# gsp antag – antagonists of gsp mutant (McCune-Albright syndrome); AID 624288; Potency, µM (titrated, usually from 76.9 µM), for the others: top-dose activity change, negative = inhibition, actives largely listed as inhibitors; gsp-mutant cells, cAMP HTRF, 30 min; control for the full effect not named in the record; 340,000 tested, 0.4% active; active = falling curve of any shape with a large fitted effect; inconclusive = falling curve, mostly with a smaller effect; inactive = flat or rising curve; cell line not stated here;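 further: intracellular cAMP measured with PDE inhibitor Ro 20-1724 present during compound exposure; potency means the concentration at half of the fitted maximal effect; on the % scale 0 is the no-effect control and ±100 the full control effect; nearly all actives have a fitted effect of over 65% in size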
#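 HTRF cAMP read-out (cAMP-d2 plus anti-cAMP antibody-K in lysis buffer, 30 min RT). Before lysis, cells are exposed to compounds with […] for 30 min at 37C in DPBS containing Ca/Mg, BSA and Tween 20.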
# * marks the source's active call; other numbers are inactive results; ? = inconclusive; . = no result given; & = joins results of further samples; [ ] = dose if it differs, or a comment.
# Values in the order – TRPV1 PAM, gsp antag, ClpP mod, Sfp inh, gsp ag, D2 PAM, Menin MLL FP FL
C#CCOCCOCCOCCNc1nc(N2CCN(C(=O)[C@H](CC(N)=O)n3cc([C@@H](N)C(C)C)nn3)CC2)nc(N2CCN(C(=O)[C@H](CC(N)=O)n3cc([C@@H](N)C(C)C)nn3)CC2)n1
    ., 7%, -0.2%, ., -5%, -7, .
CC(C)[C@@H](C(=O)NCC1CCC(C(=O)O)CC1)n1nnc2ccccc2c1=O (stereo partly specified)
    1, -7%, 1.2%, 8%, 30%, -25, -1.4
CCOc1ccccc1C(=O)Nc1cccc(-c2nnc(-c3ccccc3)o2)c1
    -1, 7%, -0.4%, -6%, 28%, -20, -1.1
Cc1c(NC(=O)c2cccnc2Cl)c(=O)n(-c2ccccc2)n1C
    -17, 22%, 1.4%, 4%, -9%[15.4 µM], -6, -15
C/C=C/c1ccc(OCCn2cncn2)c(OC)c1
    -7, -11%, -0.8%, ?, 2%, -5, -0.8
C=CCn1c(=N)n(CC(O)c2ccco2)c2ccccc21 (stereo unspecified)
    9, 9%, 0.3%, 8%, -6%, 16, ?
CCOc1ccc(NS(=O)(=O)c2ccc(C(=O)NCC(c3ccco3)N3CCCCC3)cc2)cc1 (stereo unspecified)
    ., ., -0.3%, ., -5%, -24, .
O=C(Nc1cc(C(F)(F)F)ccc1F)C1CCCC1
    1, -3%, 3.7%, 5%, 7%, -10, -1.2
CCCn1nnnc1COc1ccc(C(N)=O)cc1
    8, 8%, -0.3%, 14%, 16%, -1, 1.1
COC(=O)[C@@]1(Cc2ccc(F)cc2)[C@H]2c3cc(C(=O)N(C)C)n(C)c3C[C@H]2CN1C(=O)c1ccccc1
    ., ., -3.5%, 6%, ., ., -4.5
COC(=O)N/N=C/c1ccc(OC(=O)c2ccco2)c(OC)c1
    ., -4%, ., -13%, 13%[15.4 µM], -4, 3.8
O=C(Nc1ccc(Cl)cc1)c1cccc(OC(=S)N2CCOCC2)c1
    -4, -16%, -1.8%, 6%, ?, 1, .
CCCCOc1cccc(C(=O)N(Cc2ccccc2)C2CCS(=O)(=O)C2)c1 (stereo unspecified)
    14, -17%, -0.9%, 2%, -1%[15.4 µM], -4, -4.4
COc1ccccc1CNC(=O)C(C)Oc1ccccc1 (stereo unspecified)
    13, 2%, 0.2%, 17%, 10%[15.4 µM], -6, -4.1
O=C(Nc1ccc(F)cc1)c1ccc2c(c1)S(=O)(=O)N=C1CCCCCN12
    -1, -2%, 15%, ., ?, 1, .
CCCCCCCc1ccc(-c2ccc(O)cc2)nc1
    -1, 7%, ., 25%, -2%[15.4 µM], -8, -0.8
O=C(NC1CCCc2ccccc21)C1CCC(CNS(=O)(=O)c2cccc3nsnc23)CC1 (stereo unspecified)
    -11, -26%, -2.3%, -6%, ?, 2, 3.2
COC(=O)CCC(=O)c1oc2ccccc2c1NC(=O)CCCN1C(=O)c2ccccc2C1=O
    -2, -12%, -1.2%, -2%, -3%, -4, 2.3
COc1ccc(C(=O)NC2CCN(C(=S)Nc3cccc(C)c3)CC2)cc1
    ., 5%, -0.5%, -5%, -55%[inhibitor], -11, 0.2
Fc1ccc(F)c(CNc2ncnc3cc(Cl)ccc23)c1
    -8, -14%, -5.7%, 9%, ?, -14, ?
CC(C)Cc1nnc(NC(=O)CSc2nc(-c3ccccc3)cc(=O)[nH]2)s1
    17, -22%, ., -18%, -8%, -11, 2.5
Cc1cccc2c1cnn2C(=O)Nc1ccc(Br)cc1F
    6, 13%, 0.8%, 8%, 11%, -7, -19
COc1ccc(/C=C2\CCCC3C2=NN(C(=O)c2scnc2C)C3c2ccc(OC)cc2)cc1 (stereo unspecified)
    -10, -3%, ?, -2%, 3%, -6, 1.2
COc1ccccc1Nc1cc(C(=O)NCc2cccnc2)c2ccccc2n1
    8, -7%, ., -8%, -13%, -9, -3.0
CCOC(=O)c1[nH]c2ccccc2c1NC(=O)CN1CCCCC1
    -17, 1%, -17%, 2%, 11%, -38, 1.4
Cc1cc(C)nc(SCC(=O)Nc2ccc3c(c2)OCO3)n1
    -4, 3%, -0.1%, -1%, ?, -8, -3.4
CCN(CC)CCNC(=O)c1cn(CCOC)c(=O)c2c1c1ccccc1n2C
    2, -1%, 3.9%&3.9%, 7%, 2%, -3, 4.9
Cc1ccc(NC(=O)c2ccc(NS(=O)(=O)c3cccc4cccnc34)cc2)cc1
    13, -20%, -1.4%, 13%, 15%, -8, 1.5
Brc1ccccc1C1N=C(c2ccccc2)NO1 (stereo unspecified)
    -2, -1%, ., -12%, -7%[15.4 µM], -4, 0.5
COc1cccc(C=Nc2ccccc2C(=O)Nc2nccs2)c1OC
    -2, -1%, 32µM*, 24%, -18%, -5, 3.2
Cc1ccc(-n2nc3cc(C)c(NC(=S)NC(=O)/C=C/c4ccco4)cc3n2)cc1
    -5, 12%, -7.0%, ?, 6%, 2, .
CCCCOc1ccccc1NC(=O)CC1SC(=NCC)N(CC)C1=O (stereo unspecified)
    -13, 1%, 0.8%, -1%, 11%, -1, 4.3
O=C(Cn1nnc2c(cnn2-c2ccc(F)cc2)c1=O)OC1CCCCC1
    -3, ?, -4.8%, -6%, ?, -24, 3.3
COCCNC(=S)N1CCN(Cc2ccc3c(c2)OCO3)CC1
    24, 9%, 0.2%, 4%, 1%[15.4 µM], -10, 2.1
COc1cccc(/C=C2/C(=O)NN(c3ccc(F)cc3)C2=O)c1
    -3, -8%, -2.1%, ?, -16%[15.4 µM], -7, 3.3
O=S(=O)(NCC1CCCO1)c1cccc(C(F)(F)F)c1 (stereo unspecified)
    5, 3%, 0.9%, 5%, ?, 1, -0.6
O=C(c1sc2cccc(Cl)c2c1Cl)N1CCN(CCc2ccccn2)CC1
    2, -1%, 1.8%, 0%, 5%, -14, .
CC(=O)c1c(C)n(C)c2ccc(OC(=O)c3ccco3)cc12
    -32, 9%, 1.0%, 10%, ?, -1, 7.5
CCOCCn1c(CN2CCN(c3ccccc3)CC2)nc2c1c(=O)n(C)c(=O)n2C
    ., 0%, 1.6%, ., 19%, -12, .
N#CCCC12CCCCC1=Nc1ccccc12 (stereo unspecified)
    -2, -17%, -5.6%, 5%, 0%, 18, -2.2
Cc1cc(C)cc(NC(=O)NN2C(C)CCCC2C)c1 (stereo unspecified)
    10, 4%, 1.2%, -14%, -18%, -2, -4.7
COCCNC(=O)COC(=O)/C=C/c1cnc2ccccc2n1
    -5, -4%, -1.1%, 10%, 13%, -5, -2.2
CCN(CC)c1nc2ccccc2nc1C(C#N)C(=O)NCCc1ccccc1 (stereo unspecified)
    -17, ?, -1.1%, -10%, 19%, 1, ?
COc1cccc(NC(=O)Nc2cc(C)ccc2F)c1
    -13, -6%, -1.7%, -4%, -7%, 10, -0.8
CCCOC(=O)c1ccc(NC(=O)CC(C)(C)C)cc1
    -6, -6%, -3.2%, 9%, -20%, -4, 4.4
COC(=O)C1=C[C@@H](C(=O)OC)[C@@H]2C3=C(C(=O)[C@@]2(C)NC(=O)c2ccccc2)[C@H](C)C(C(=O)OC)=C(C(=O)OC)[C@@H]3C1
    ., -1%, -0.5%, ., ., -5, .
Cc1cccc(NC(=O)CN2C(=O)N/C(=C/c3cc(C)n(C)c3C)C2=O)c1
    12, -15%, ., 12%, 3%[15.4 µM], -18, 2.3
CCOc1ccc(NC(=O)C(CC)NC(=O)c2ccccc2CO)cc1 (stereo unspecified)
    0, -1%, -1.8%, 21%, -3%, -5, 3.3
O=C(COc1ccc(Br)cc1)N1CCN(S(=O)(=O)/C=C/c2ccccc2)CC1
    -2, -25%, ?, 1%, 0%, -9, 2.3
COc1cc(CNC(C)c2ccccc2)cc(Br)c1OCc1ccccc1 (stereo unspecified)
    0, 3%, ., ?, 19%, -11, -0.3
Cn1ncc(Br)c1C(=O)Nc1ccc(Cl)cn1
    5, 0%, 0.9%, 3%, ?, -13, 4.6
CCOc1cc(N2CCOCC2)c(OCC)cc1NC(=O)CSc1cccc[n+]1[O-]
    -2, -7%, -3.3%, -33%, -20%, 57*, 4.2
O=C(Cn1cnc2ccccc2c1=O)c1ccc(Br)cc1
    5, 2%, ., 17%, -6%, -4, -1.8
O=C(COC(=O)C1CCCC1)Nc1cccc(Cl)c1Cl
    ., 6%, ., ., 37%, -4, .
CCn1c(SCC(=O)Nc2nc3ccc(C)cc3s2)nc2c(c1=O)SC(C)C2 (stereo unspecified)
    -9, -23%, -2.1%, 2%, -17%, 20, -0.3
Cc1cccc(NC(=S)NCC(c2cccnc2)N(C)C)c1C (stereo unspecified)
    ?, -1%, -4.1%, 5%, -2%, 4, -1.9
Cc1nc2cc3ccccc3cc2n1C
    2, 14%, ?, 7%, -8%, -8, 6.1
COc1ccc(-c2ccc(OC)c([C@H]3[C@H]4C=CC[C@@H](C)[C@@H]4C(=O)N3Cc3ccccc3)c2)cc1OC
    -20, -10%, ?, -26%, ., -5, 2.5
CCOC(=O)c1c(C)c(C(=O)NCCc2ccccc2)c(C)n1C
    18, 19%, -1.8%, 11%, -25%, -15, -1.1
Cc1cc(C(=O)CSc2nnc(Nc3ccccc3F)s2)c(C)n1CC1CCCO1 (stereo unspecified)
    18, ?, -1.5%, -14%, -25%, -13, 2.1

# The listing continues.
# Values in the order – TRPV1 PAM, gsp antag, ClpP mod, Sfp inh, gsp ag, D2 PAM, Menin MLL FP FL
CCOc1ccc(NC(=O)C2CC(=O)N(CCc3ccccc3)C2)cc1OC (stereo unspecified)
    2, 4%, -1.7%, ., 21%, -18, .
CCN(CC)c1ccc(C=Nc2ccccc2C)c(O)c1
    2, 17%, 1.2%, -3%, -32%[inhibitor], 15, .
COc1ccc(-c2cc(-c3cc(C)ccc3O)[nH]n2)cc1
    14, -19%, ., -2%, 26%, -5, 1.1
O=C(Cn1nc(CNc2ccc(Br)cc2)[n+]2c1CCCCC2)c1ccc([N+](=O)[O-])cc1
    8, -6%, 1.2%, 56µM*, -1%[15.4 µM], 1, 0.2
C[C@@H]1CN([C@H](C)CO)C(=O)CCCn2cc(nn2)CO[C@H]1CN(C)S(=O)(=O)c1ccc(-n2cccn2)cc1
    ., ., -3.9%, ., ?, -3, .

# Screens from PubChem BioAssay.
